Compound activity as filed in PubChem BioAssay.
RE007 growth inh: qHTS Assay for Inhibitors of the HIV-1 protein Vpr. S. pombe RE007 Vpr strain, BacTiter-Glo ATP luminescence, 24 h; control for the full effect not named in the record. Potency, µM (titrated, usually from 92.2 µM), without a hit: at the top dose activity change, negative = less growth. 0.21% of 360,000 active. AID 651644, 2012; active = well fitted falling curve with a large enough effect; inconclusive = small, poorly fitted or top-dose-only effect; inactive = no such curve, though single readings can be large or run the other way;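 further: on the % scale 0 is the no-effect control and ±100 the full control effect; nearly all actives have a fitted effect of over 50% in size; the assay follows cell death caused by Vpr and the record does not say whether a fall means rescue or toxicity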
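Fission yeast RE007 carrying one integrated HIV-1 vpr copy, seeded at OD 0.01 in PMG+AL medium with 23 nL pinned compound. Grown 24 h at 30 degrees; viability read by BacTiter-Glo luminescence after 5 min.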
StopGo reporter: High Throughput Screening for Foot and Mouth Disease Virus Antivirals | human cells with a luciferase reporter of 2A StopGo recoding; control for the full effect not named in the record | Potency, µM (series often up to 57.9 µM), for the others: at the top dose signal change, negative = less light | 1.2% of 410,000 active | AID 1159524, 2015; active = well fitted falling curve with a large enough effect; inconclusive = small, poorly fitted or top-dose-only effect; inactive = no such curve, though single readings can be large or run the other way; tested in HEK293T cells; further: on the % scale 0 is the no-effect control and ±100 the full control effect; nearly all actives have a fitted effect of over 45% in size; luciferase light after 4 h
Cruzain noTriton: qHTS Assay for Promiscuous and Specific Inhibitors of Cruzain (without detergent); Cruzipain (Trypanosoma cruzi), P25779; purified cruzain, Z-FR-AMC fluorescence, no detergent; Potency, µM, for inactives: max response, negative = inhibition, usual class: inhibitors; 2.3% of 200,000 active; AID 1476, 2009; active means well fitted curve in the direction sought with a large enough effect; inconclusive means small, poorly fitted or top-dose-only effect, or another doubt; inactive means no such curve, though single readings can be large; an effect the other way counts as inactive or inconclusive;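 further: plate controls were enzyme without inhibitor for no effect and buffer without enzyme for full effect; nearly all actives have a fitted effect of over 40% in size; top concentration of the series not given in the record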
Target sequence (P25779 123-467 limits assumed): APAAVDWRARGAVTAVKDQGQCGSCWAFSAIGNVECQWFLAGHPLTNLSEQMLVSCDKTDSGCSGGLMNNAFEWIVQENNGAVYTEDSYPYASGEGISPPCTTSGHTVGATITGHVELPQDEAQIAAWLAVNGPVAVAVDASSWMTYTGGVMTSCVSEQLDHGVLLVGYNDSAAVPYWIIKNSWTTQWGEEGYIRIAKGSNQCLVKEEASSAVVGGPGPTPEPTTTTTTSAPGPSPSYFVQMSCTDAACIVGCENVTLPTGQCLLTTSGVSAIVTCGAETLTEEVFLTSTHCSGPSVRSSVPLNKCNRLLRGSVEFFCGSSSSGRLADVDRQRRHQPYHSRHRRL
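Detergent-free condition (0.00005% Triton X-100) in acetate buffer pH 5.5 with DTT. 1.5 nM enzyme and compound were pre-mixed 15 min, then 2 uM Z-FR-AMC substrate added; reaction progress from fluorescence change between first and third reads (60 s).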
Cruzain inh Det: qHTS Assay for Promiscuous and Specific Inhibitors of Cruzain (with detergent); purified cruzain, Z-FR-AMC fluorescence, 0.01% Triton; Cruzipain (Trypanosoma cruzi), P25779; 0.43% of 200,000 active; Potency, µM, for inactives: max response, negative = inhibition, usual class: inhibitors; active means well fitted curve in the direction sought with a large enough effect; inconclusive means small, poorly fitted or top-dose-only effect, or another doubt; inactive means no such curve, though single readings can be large; an effect the other way counts as inactive or inconclusive;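 further: plate controls were neutral wells for no effect and buffer without enzyme for full effect; nearly all actives have a fitted effect of over 40% in size; top concentration of the series not given in the record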
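Purified cruzain (1.5 nM final) was preincubated with compounds for 15 min at room temperature in 100 mM sodium acetate pH 5.5, 5 mM DTT, 0.01% Triton X-100. Reaction started with 2 uM Z-FR-AMC; AMC fluorescence change over 60 s gave activity.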
SARS PLpro yeast: qHTS of Yeast-based Assay for SARS-CoV PLP. S. cerevisiae expressing SARS-CoV PLpro, growth rescue; control for the full effect not named in the record. Potency, µM (top dose mostly 32.9 µM), for inactives: at the top dose activity, positive = growth rescue. 0.19% of 330,000 active; further: 0% is about no effect; nearly all actives have a fitted effect of over 55% in size; growth read by luminescence after 48 h
Lassa entry inh: qHTS for Inhibitors of binding or entry into cells for Lassa Virus; 1.2% of 300,000 active; Lassa virus pseudotype entry inhibition, cell reporter; control for the full effect not named in the record; Potency, µM (series often up to 37.9 µM), for inactives: at the highest dose activity change, negative = inhibition, actives largely listed as inhibitors; active means well fitted inhibition curve with a large enough effect; inconclusive means small, poorly fitted or top-dose-only effect, or effect the other way; inactive means flat fitted curve, though single readings scatter; tested in HEK293 cells; further: on the % scale 0 is the no-effect control and ±100 the full control effect; nearly all actives have a fitted effect of over 50% in size; luciferase read-out
Marburg entry inh: qHTS for inhibitors of binding or entry into cells for Marburg Virus. Marburg virus pseudotyped entry inhibition, cell reporter; control for the full effect not named in the record; about a third of the inactives were read at about 46 µM. Potency, µM (titrated, usually from 37.8 µM), without a hit: at the highest dose activity change, negative = inhibition, hits mostly inhibitors. 1.8% of 300,000 active; active = well fitted inhibition curve with a large enough effect; inconclusive = small, poorly fitted or top-dose-only effect, or effect the other way; inactive = flat fitted curve, though single readings scatter; tested in HEK293 cells; about a fifth of its hits are not listed in these tables; further: on the % scale 0 is the no-effect control and ±100 the full control effect; luciferase read-out
NS1 function inh: qHTS Assay for Inhibitors of Influenza NS1 Protein Function; 0.4% of 270,000 active; Potency, µM (doses to about 46.1 µM), for inactives: at the highest dose activity, positive = more growth; S. cerevisiae slowed by influenza A NS1, growth recovery by OD600; AID 2326, 2010; further: actives are rising curves; nearly all actives have a fitted effect of over 50% in size
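Recovery from NS1-induced slow growth read by OD600 in budding yeast switched to galactose assay medium (pH 6.0, -URA) at 1:100 dilution. Compound 23 nl per well; the matching strain lacking NS1 serves as control.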
The depositor's hits bear a star; ? = inconclusive; nt = no result given; & = joins results of further samples; [ ] = remark or other dose. Unless noted, the call rests on the fitted dose curve; in most records, active means well fitted rising curve with a large enough effect; inconclusive means small, poorly fitted or top-dose-only effect; inactive means no such curve, though single readings can be large or run the other way. Potency means the concentration at half of the fitted maximal effect.

SMILES	RE007 growth inh	StopGo reporter	Cruzain noTriton	Cruzain inh Det	SARS PLpro yeast	Lassa entry inh	Marburg entry inh	NS1 function inh
Cc1cccc(N(C(=O)CNC(=O)c2ccco2)C(C(=O)NCC2CCCO2)c2ccccc2)c1 (configuration not stated)	-12%	-30%	nt	nt	0%	1%	?	2%
COc1ccc(/C=N/NC(=O)COc2ccc(Cl)cc2Cl)cc1Cn1nc(C)cc1C	11%	30%[activator]	?	1.0%	-10%	-2%	-17%	10%
O=C(NCCc1ccccc1)C1CCC(=O)N1CCc1ccccc1 (configuration not stated)	9%	1%	nt	nt	-1%	3%[46.1 µM]	-24%[46.1 µM]	-8%
O=C(CCn1c(=O)oc2ccccc21)Nc1nccs1	6%	47%[activator]	-2%	3.8%	2%	10%	22%[46.1 µM]	-2%
Cc1ccc(Nc2nnc(SCc3ccccc3)s2)cc1	-9%	59%[activator]	-13%	-0.7%	9%	4%	?	-4%
O=C(COC(=O)c1ccc([N+](=O)[O-])cc1)Nc1ccc(Cl)cn1	5%	-18%	nt	nt	-1%	0%	-18%[46.1 µM]	nt
Cc1ccc(C(=O)Oc2cccc(NC(=O)c3cccs3)c2)cc1S(=O)(=O)N1CCOCC1	1%	-19%	?	-1.3%	5%	-5%	-17%	7%
COc1ccc(NC(=S)NC(=O)c2cccnc2)cc1	-4%	26%	nt	nt	-5%	23%[46.1 µM]	22%[46.1 µM]	-3%
O=C(O)Cc1ccc(NS(=O)(=O)c2c(Cl)cccc2Cl)cc1	5%	-4%	nt	nt	2%	-2%[46.1 µM]	?	nt
c1ccc(-c2nc[nH]c2-c2ccccc2)cc1	2%	-11%	10%	2.4%	-2%&-1%	?	13%&13%&13%	?
Cc1nc2cc(NC(=O)COc3ccc(C#N)cc3)ccc2n1-c1ccccc1	0%	-6%	3%	-2.4%	?	8%	-26%	-17%
C#CCn1c(=NC(=O)c2sc3ccccc3c2Cl)sc2cc(S(N)(=O)=O)ccc21	-23%	-11%	?	-8.1%	4%	12%	?	5%
Cc1ccc(-c2nn3c(C)nnc3s2)cc1NCc1c(F)cccc1Cl	-8%	nt	-2%	-0.4%	-4%	?	9.2µM*	-75%
CCC(C)(C)n1nnnc1C(c1ccc(OC)cc1)N1CCN(C(=O)c2ccco2)CC1 (configuration not stated)	-8%	18%	nt	nt	5%	?	-9%[46.1 µM]	-12%
CC(C)CC1C2C(=O)N(c3ccccc3)C(=O)C2ON1c1ccccc1 (configuration not stated)	-2%	16%	nt	nt	0%	nt	nt	5%
CCC(Sc1nc(N)c(NC(=O)c2ccco2)c(=O)[nH]1)C(=O)O (configuration not stated)	-4%	7%	nt	nt	-2%	13%	28%	7%
CCOc1cc(CNCCO)cc(Br)c1OCc1cccs1	-12%	?	5%	2.9%	-12%	-25%	?	4%
CCCCNC(=S)N1CCN(Cc2ccc3c(c2)OCO3)CC1	-1%	-20%	nt	nt	-7%	-16%	-1%[46.1 µM]	nt
O=C1CCN(S(=O)(=O)c2ccc(Cl)cc2)N1	-12%	19%	-10%	7.6%	0%	18%	?	10%
O=C(NN=C1CCCCCCCCCCC1)c1cccc(S(=O)(=O)N2CCOCC2)c1	-15%	-3%	?	-5.8%	-7%	21%	41%	2%
O=C(Nc1ccc(Br)cc1Br)c1cccc2c1C(=O)N(C1CCCCC1)C2	-3%	-11%	nt	nt	0%	-18%[46.1 µM]	-17%[46.1 µM]	8%
COc1ccc(C)cc1-n1c(SCC(=O)NCc2ccco2)nc2c([nH]c3ccccc32)c1=O	nt	-21%	?	-4.6%	nt	-13%[46.1 µM]	nt	nt
CCOc1ccc2nc(NC(=O)C(CCSC)NS(=O)(=O)c3cccs3)sc2c1 (configuration not stated)	-9%	?	-19%	-1.6%	-3%	-3%	-11%	2%
N#CCc1cc2ccc3cccc4ccc(c1)c2c34	-1%	4%	nt	nt	-4%	nt	nt	-5%
Cc1ccc(NC(=O)CC(c2ccc(F)cc2)N2Cc3ccccc3C2=O)cc1C (configuration not stated)	nt	2%	-2%	-2.3%	nt	6%[46.1 µM]	nt	nt

Part of the list above, with values under each structure.
Sequence of screens – RE007 growth inh	StopGo reporter	Cruzain noTriton	Cruzain inh Det	SARS PLpro yeast	Lassa entry inh	Marburg entry inh	NS1 function inh
> Cc1ccc(Nc2nnc(SCc3ccccc3)s2)cc1
 : -9%	59%[activator]	-13%	-0.7%	9%	4%	?	-4%
> CCC(Sc1nc(N)c(NC(=O)c2ccco2)c(=O)[nH]1)C(=O)O (configuration not stated)
 : -4%	7%	nt	nt	-2%	13%	28%	7%

Reformatted: 5 of the compounds above
compound,RE007 growth inh,StopGo reporter,Cruzain noTriton,Cruzain inh Det,SARS PLpro yeast,Lassa entry inh,Marburg entry inh,NS1 function inh
Cc1ccc(-c2nn3c(C)nnc3s2)cc1NCc1c(F)cccc1Cl,-8%,nt,-2%,-0.4%,-4%,?,9.2µM*,-75%
CCC(C)(C)n1nnnc1C(c1ccc(OC)cc1)N1CCN(C(=O)c2ccco2)CC1 (configuration not stated),-8%,18%,nt,nt,5%,?,-9%[46.1 µM],-12%
CC(C)CC1C2C(=O)N(c3ccccc3)C(=O)C2ON1c1ccccc1 (configuration not stated),-2%,16%,nt,nt,0%,nt,nt,5%
CCC(Sc1nc(N)c(NC(=O)c2ccco2)c(=O)[nH]1)C(=O)O (configuration not stated),-4%,7%,nt,nt,-2%,13%,28%,7%
CCOc1cc(CNCCO)cc(Br)c1OCc1cccs1,-12%,?,5%,2.9%,-12%,-25%,?,4%

Later entries.
SMILES	RE007 growth inh	StopGo reporter	Cruzain noTriton	Cruzain inh Det	SARS PLpro yeast	Lassa entry inh	Marburg entry inh	NS1 function inh
NP(=O)(OCCCc1ccccc1)Oc1ccccc1 (configuration not stated)	1%	0%	nt	nt	15%	nt	nt	-3%
Cc1ccc(OCc2n[nH]c(=S)n2Cc2ccccc2)cc1	-5%	-14%	nt	nt	0%	2%	1%	6%
CCOc1ccc(Br)cc1S(=O)(=O)Nc1ccc(Cl)c(S(=O)(=O)N(C)C)c1	-5%	57%[activator]	-4%	-11%	-11%	-5%	-11%	13%
CCCC(C(=O)Nc1cccc(S(=O)(=O)N2CCCC2)c1)c1ccccc1 (configuration not stated)	5%	-3%	nt	nt	nt	7.1µM*	?	nt
N#CC(C(=O)Nc1cccc(Cl)c1)=C1Nc2ccccc2N1	7%	0%	?	-1.9%	0%	3%	0%	20%
Cc1cccc(NC(=O)C2CC2c2ccccc2)c1C (configuration not stated)	0%	23%	nt	nt	-2%	nt	nt	-12%
Cc1cccc(COc2ccc(/C=N/NC(=O)c3nnn(-c4nonc4N)c3CN3CCCCC3)cc2)c1	13%	27%	nt	nt	-10%	nt	nt	9%
CC(C)CCn1c(CN2CCN(Cc3ccccc3)CC2)nc2c1c(=O)n(C)c(=O)n2C	-7%	?	3%	-2.2%	1%	-21%	?	-6%
CCS(=O)(=O)N1Cc2ccccc2CC1C(=O)N(C)Cc1ccc(OC)c(F)c1 (configuration not stated)	2%	48%[activator]	nt	nt	8%	nt	?	-18%
CCOC(=O)c1ccc(N=C2C(=S)N(c3ccc(C(=O)OCC)cc3)C(=N)N2/N=C/c2ccccc2)cc1	15%	-5%	13µM*	-12%	11%	-5%	30%	13%
O=C(NC12CC3CC(CC(C3)C1)C2)c1ccc([N+](=O)[O-])cc1	4%	-9%	nt	nt	6%	nt	nt	8%
Cc1cc(C)cc(NC(=O)N2c3ccccc3NC(=O)CC2C)c1 (configuration not stated)	-10%	-7%	nt	nt	0%	-25%	2%[46.1 µM]	-2%
Nc1nn(-c2ccccc2)c(N)c1N=Nc1ccccc1	0%	-13%	7%	-8.6%	-27%	?	?	-20%
Cc1ccc(C2=N/C(=C\c3cccc(F)c3)C(=O)O2)cc1	-10%	-9%	nt	nt	-2%	nt	nt	4%
COc1cc(COCC(O)CN2CCc3ccccc3C2)cc(OC)c1OC (configuration not stated)	-6%	-4%	nt	nt	0%	nt	nt	4%
CCNC(=O)c1ccc(CSc2nc3ccncc3n2Cc2ccc(F)cc2)cc1	nt	-17%	8%	-5.2%	nt	22%[46.1 µM]	8%[46.1 µM]	nt
O=C(c1ccccc1)n1nnc2ccccc21	2%	-3%	-16%	5.9%	nt	3%	3%	6%
CC1=C(C(=O)Nc2ccc(C)cc2)C(c2ccc(N(C)C)cc2)NC(=O)N1 (configuration not stated)	-2%	-17%	-4%	-2.7%	19%	-21%	6%	0%
CCN1C(=O)/C(=C\N2CCOCC2)SC1=S	2%	-10%	5%	-3.8%	4%	6%	8%	16%
Cc1nn(Cc2ccccc2)c(C)c1/C=N/NC(=O)c1cccnc1	-9%	-4%	-8%	3.1%	12%	16%	19%	1%
O=C1CCCC(=NCc2ccco2)C1	14%	7%	14%	4.3%	-2%	0%	3%	-5%
O=C(COC(=O)c1cccnc1Cl)c1ccccc1	-6%	51%[activator]	-7%	0.2%	-8%	21%	23%	-28%
CCOC(=O)C1(CC2CC2)CCN(Cc2cn[nH]c2-c2cccc(F)c2)CC1	15%	-17%	nt	nt	0%	nt	nt	-7%
CN1CCN(C(=S)NC(=O)c2ccc(C(C)(C)C)cc2)CC1	6%	7%	-4%	-1.0%	9%	?	6%	-13%
O=[N+]([O-])c1cnc2ccccn12	-4%	10%	nt	nt	3%	nt	nt	3%
COc1ccc(CSCC(=O)N/N=C/c2ccccc2O)cc1	1%	10%	nt	nt	-2%	?	?	-32%

One compound at a time (already shown). Screens in order: RE007 growth inh | StopGo reporter | Cruzain noTriton | Cruzain inh Det | SARS PLpro yeast | Lassa entry inh | Marburg entry inh | NS1 function inh
Record of O=C(c1ccccc1)n1nnc2ccccc21 = 2% | -3% | -16% | 5.9% | nt | 3% | 3% | 6%
Record of CC(C)CC1C2C(=O)N(c3ccccc3)C(=O)C2ON1c1ccccc1 (configuration not stated) = -2% | 16% | nt | nt | 0% | nt | nt | 5%
